H5N1 CPE: antiviral screen in MDCK cells, H5N1 avian flu. cytopathic effect, luminescence, 72 h; stronger effect = higher value; no value below 0 was filed and about half of the inactive calls have no number; reference of the scale not given here. inhibition, % at 50 µM. 0.07% of 96,000 active; in the data active means inhibition above about 25%
An asterisk follows results filed as active; i = inactive. An excerpt; rates above refer to the full screens.

Molecule | H5N1 CPE
CCn1c(=NC(=O)c2ccc(N3C(=O)CCC3=O)cc2)sc2c(OC)ccc(OC)c21 | 1.4
COc1ccc(NC(=O)CSc2nnc(-c3ccccc3C)n2N)cc1 | i
CN(c1ccc(C(=O)NCCSCc2ccco2)cc1)S(C)(=O)=O | 1.0
O=S(=O)(Nc1nc2ccccc2s1)c1ccc(Br)s1 | 0.5
CN(C)c1ncc(S(=O)(=O)c2ccccc2)c(-c2ccccc2Cl)n1 | 0.4
Cc1ccc2cc(S(=O)(=O)NCCC(=O)O)ccc2c1 | i
COc1ccc(N=C2CCCN2CC(N)=O)cc1 | i
O=C1C=C(c2cccs2)CC(c2cccs2)C1n1cnc([N+](=O)[O-])c1 (configuration not stated) | 2.0
CCOc1ccc(C(=O)Nc2ccccc2-c2ccccc2)cc1Cl | 0.4
C=CCOc1c2ccc(C(=O)NCc3ccc(C)cc3)cc2nn1C | i
CCOC(=O)c1c(C(C)(C)C)oc2ccc(OCC#N)cc12 | 3.3
O=C(NCc1ccccn1)c1cc(-n2cnnc2)ccc1Cl | 0.4
Cc1ccc(C2CC(C(F)(F)F)n3ncc(C(=O)NCc4ccco4)c3N2)cc1 (configuration not stated) | 2.0
CN(C)c1cccc(-c2nnc(SCCCC#N)o2)c1 | i
CCc1cccc(C)c1NC(=O)CSc1nc2ccc(N3C(=O)c4ccccc4C3=O)cc2s1 | 1.4
COc1c(F)c(F)c(C(=O)Nc2ccc(NC(=O)c3ccco3)cc2)c(F)c1F | i
Cc1ccccc1-n1c(Cn2c(=O)sc3ccccc32)nnc1SCC(=O)N1CCCC1 | 1.4
Cc1ccc(CNc2ncnc3cc(Cl)ccc23)o1 | i
Cc1cc(NC(=O)CCC(=O)N(c2ccccc2)C2(C(=O)NC3CCCCC3)CCCC2)no1 | i
CCOC(=O)Cc1cnc(NC(=O)c2ccccc2)s1 | i
CCC(C)(C)NC(=O)C(c1ccncc1)N(Cc1cccs1)C(=O)Cn1nnc2ccccc21 (configuration not stated) | i
O=C(C1CCCO1)N1CCN(S(=O)(=O)c2ccccc2)CC1 (configuration not stated) | 0.6
O=c1nc(-c2ccccc2)c2cc(Cl)ccc2[nH]1 | 0.6
CCCCc1cc(=O)oc2cc(OCC(=O)N3CCc4ccccc43)ccc12 | 0.9
Cc1cc(C)c(Cn2cnc(-c3ccc([N+](=O)[O-])cc3)c2)c(C)c1 | i

Next entries follow.
Molecule | H5N1 CPE
CC(C)(C)C1=Nn2c(nnc2-c2ccccn2)SC1 | 1.4
CSc1cccc(NC(=O)CN(C2CCCCC2)S(C)(=O)=O)c1 | 1.9
O=C(O)CNC(=O)c1ccc(S(=O)(=O)N2CCOCC2)cc1 | 0.4
COc1ccc(-c2nc(SCc3ccccc3)n(S(C)(=O)=O)n2)cc1 | 0.6
CCc1c(C)nc(Nc2nc(C)c3ccc(OC)cc3n2)[nH]c1=O | 5.3
O=C(O)C1(NS(=O)(=O)c2ccc(Cl)cc2)CCCCC1 | i
CCn1cc(C(=O)O)c(=O)c2cc(Br)ccc21 | 0.7
COc1ccc(CCNc2nc(C)nc3c2oc2ccccc23)cc1OC | 0.2
CN1C=C(C(F)(F)F)C=C/C1=C(\C#N)c1nnc2n1CCCCC2 | i
Cc1[nH]nc2c1C(c1ccc(OC(=O)c3ccco3)cc1)C(C#N)=C(N)O2 (configuration not stated) | i
COc1ccc(-c2cc(-c3cccs3)c(C#N)c(SCC(=O)NCc3ccccc3OC)n2)cc1 | i
CCn1c(C)c(C(C)=O)c(N2CCN(c3ccc(F)cc3)CC2)nc1=S | 0.3
COc1cc2nc(C3CCC3)n(NC(=O)C3CCC(OC)CC3)c(=O)c2cc1OC (configuration not stated) | i
CCOC(=O)C1CCN(CC(=O)c2c(C)[nH]c3ccccc23)CC1 | 0.3
O=C(COC(=O)C12CC3CC(CC(C3)C1)C2)NCc1ccco1 | 0.7
CCCOc1ccc(N2C(=O)CC(N3CCC(O)(c4cccc(C(F)(F)F)c4)CC3)C2=O)cc1 (configuration not stated) | i
CN1CCC(N(C)C(=O)c2ccccc2Nc2ccc(SC(F)F)cc2)CC1 | i
OC(CN1CCOCC1)Cn1c(-c2cccc(Cl)c2)nc2ccccc21 (configuration not stated) | 1.1
C=CCn1c(=O)c2c(C)c(C)sc2n2c(Nc3ccccc3)nnc12 | 0.1
O=C(Oc1nsnc1N1CCOCC1)N(c1ccccc1)c1ccccc1 | i
CCCCSc1nc2ccc(Nc3nc(N4CCOCC4)nc(N4CCOCC4)n3)cc2s1 | i
CCN1CCN(CNC(=O)c2cnccn2)CC1 | 0.4
Cc1noc(C)c1COC(=O)Cc1ccc(Cl)cc1 | 0.4
CCc1nc2oc3ccccc3c(=O)c2c(=O)n1CCOC | i
CC1(C(=O)CSc2n[nH]c(-c3ccccc3Cl)n2)CCC(=O)O1 (configuration not stated) | 0.7

Carrying on.
Molecule | H5N1 CPE
Cc1cc2nc(C)c(Cc3ccccc3)c(=O)n2[nH]1 | 0.3
CCOC(=O)c1ccc(NC(=O)CSc2nnc(-c3ccncc3)n2C)cc1 | 0.0
O=C(NCc1ccco1)C1CCN(C(=O)c2cc3sccc3n2Cc2ccc(F)cc2)CC1 | 1.4
Cc1nn(S(=O)(=O)N(C)C)c(C)c1CN1C(=O)c2ccccc2C1=O | i
CCC(C)n1c(SCC(=O)NC(=O)Nc2ccc3c(c2)OCCO3)nc2ccccc2c1=O (configuration not stated) | 0.1
N#CCCn1c(Cl)nc2ccccc21 | i
Cc1ccnc(NS(=O)(=O)c2ccc(N)cc2)n1 | i
COc1ccccc1-n1c(CNC(=O)c2ccco2)nnc1SCC(=O)Nc1nccs1 | 0.1
COc1ccc(-c2cc(NCCc3ccncc3)n3ncnc3n2)cc1 | 2.0
COc1ccc(OCCSc2nnc(-c3ccoc3C)n2C)cc1 | i
COc1ccccc1C1(CC(=O)Nc2nccs2)CCOC(C(C)C)C1 (configuration not stated) | 0.2
CCCN1C2=NCCCN2c2ccccc21 | 1.3
CC(C)CC(=O)c1c[nH]c(C(=O)NCCc2ccccn2)c1 | 0.4
Cc1ccccc1C(O)(Cc1ccccc1)C1CN2CCC1CC2 (configuration not stated) | i
O=C(CCCn1c(=S)[nH]c2cc3c(cc2c1=O)OCO3)N1CCN(c2ccccc2)CC1 | 0.5
O=C1CC(Cc2ccccc2)C(=O)N1CCCn1ccnc1 (configuration not stated) | 0.5
CCOC(=O)CNC(=O)c1ccc(C)cc1 | 0.9
COc1ccc(C(=O)N=c2c(C#N)cc3c(=O)n4cccc(C)c4nc3n2Cc2ccco2)cc1 | 2.4
CC(=O)Nc1ccc(C(=O)N2CCN(C(=O)c3ccco3)CC2)cc1 | 0.4
COC(=O)c1ccccc1NC(=O)/C=N/O | i
COc1cc(OC)c2c(C)c(Cl)c(=O)oc2c1 | i
O=S(=O)(c1cnccc1N1CCN(/N=C/c2ccccc2)CC1)N1CCCCC1 | 3.1
CCC(C)Oc1nc2ccccc2nc1NS(=O)(=O)c1ccccc1 (configuration not stated) | 0.5
O=C(COC(=O)Cc1ccc(S(=O)(=O)N2CCOCC2)s1)Nc1ccc2c(c1)OCO2 | 0.1
CCOC(=O)N1CCN(c2nc(-c3ccc(F)cc3)cs2)CC1 | 0.0

Sorted by count of non-hydrogen atoms (high to low): three of the compounds above
Molecule | H5N1 CPE
O=C(NCc1ccco1)C1CCN(C(=O)c2cc3sccc3n2Cc2ccc(F)cc2)CC1 | 1.4
O=S(=O)(c1cnccc1N1CCN(/N=C/c2ccccc2)CC1)N1CCCCC1 | 3.1
Cc1ccnc(NS(=O)(=O)c2ccc(N)cc2)n1 | i

The listing continues:
Molecule | H5N1 CPE
CCN(CC)C(=O)Cn1nnc(-c2ccc(C)o2)n1 | i
CC(C)CCN1CC(C(=O)NCCC2=CCCCC2)CC1=O (configuration not stated) | i
Cc1ccc(C2CC(=O)NC(SCCC(C)C)=C2C#N)cc1 (configuration not stated) | i
O=C1OCc2cc(NC(=O)C34CC5CC(CC(C5)C3)C4)ccc21 | 0.1
Cc1ccc(/C(O)=C2\C(=O)C(=O)N(c3cc(C)on3)C2c2cccc(Br)c2)cc1 (configuration not stated) | i
O=C(Nc1ccccc1N1CCOCC1)c1ccc([N+](=O)[O-])cc1 | i
CCCC12CN(C(=O)c3ccc(OC)cc3)CC(C)(CN(C(=O)c3ccc(OC)cc3)C1)C2=O | 1.1
NS(=O)(=O)c1ccc(NS(=O)(=O)c2ccc(NC(=O)c3ccc(-c4ccccc4)cc3)cc2)cc1 | i
COc1cc2c(cc1OC)C(C(=O)NCc1ccco1)C(c1cccs1)N(C)C2=O (configuration not stated) | 0.7
CC(C(=O)OCC(=O)Nc1ccc(S(=O)(=O)N2CCCCC2)cc1)N1C(=O)c2ccccc2C1=O (configuration not stated) | 1.3
COc1ccc(C2NC(=O)c3ccccc3N2)cc1OC (configuration not stated) | i
C=CCOc1nc2c(c(=O)n(C)c(=O)n2C)n1Cc1ccc(Cl)cc1Cl | 0.8
COc1ccc(Nc2ncc3c(n2)CC(c2ccc(C)cc2)CC3=O)cc1 (configuration not stated) | i
Cc1cc(C)n(-c2c(F)c(F)c(CO)c(F)c2F)n1 | 0.0
CC(C)N(Cc1nc(-c2ccccc2)no1)C(=O)CSc1ccccc1 | 2.1
COc1ccc(OCCC(=O)Nc2cc(C)on2)cc1 | i
COc1cccc(-n2nc(-c3ccnn3-c3ccc(C)cc3)c(=O)n(C)c2=O)c1 | 2.1
COC(=O)c1cnn(-c2cc(Oc3ccccc3)ncn2)c1N | i
COc1ccccc1Oc1c(C)oc2c(CN3CCN(C)CC3)c(O)ccc2c1=O | 0.0
Cc1ccccc1Nc1nc(CSc2nnc(-c3ccoc3C)n2C)cs1 | i
O=S(=O)(c1cccc(-c2cn3cccnc3n2)c1)N1CCCCCC1 | 2.9
COc1ccc(-c2coc3c(CN4CCCCC4)c(O)c(CN4CCCCC4)c(O)c3c2=O)cc1 | i
CCc1cc(-c2n[nH]c(C)c2-c2nc3ccccc3n2C)c(O)c(CN2CCN(C)CC2)c1O | 0.8
c1ccc2c(-c3c[nH]c4ccccc34)c3ccccc3nc2c1 | 4.0
COc1cccc(CNS(=O)(=O)c2cc(Br)cc3c2N(C(C)=O)C(C)C3)c1 (configuration not stated) | 1.5

(list continues)
Molecule | H5N1 CPE
CCC(=O)Nc1ccc2c(c1)nc(CCN1CCN(C)CC1)n2C | 0.3
Nc1ccccc1C(=O)OCC(=O)Nc1ccc(Br)cc1F | 0.0
CCn1c(=O)n(CC(=O)NC2CCCC(C)C2C)c(=O)c2ccccc21 (configuration not stated) | 0.6
Cc1ccc(CNC(=O)C2CCCN2C(=O)NCc2ccccc2)cc1 (configuration not stated) | 0.6
COc1ccc(C(=O)C(CCCCC(CN(C)C)C(=O)c2ccc(OC)cc2)CN(C)C)cc1 (configuration not stated) | i
O=C(NCc1ccco1)C(c1ccco1)N(CCc1ccccc1)C(=O)Cn1nnc2ccccc21 (configuration not stated) | i
CCCS(=O)(=O)N1CCN(C(=O)COc2ccccc2)CC1 | i
O=C(CN1C(=O)NC2(CCCC2)C1=O)N1CCN(C(=O)c2ccco2)CC1 | i
O=C(c1ccc(CN2CCc3ccccc3C2)cc1)N1CCc2ccccc2C1 | 0.6
COc1ccc(Cl)cc1-c1n[nH]c(=S)o1 | i
CCOc1ccc(NC(=O)Cn2nnc(-c3ccccc3NC(=O)CC)n2)cc1 | 0.6
Cc1nnc(NC(=O)CCCCCN2C(=O)C3C4C=CC(C4)C3C2=O)s1 (configuration not stated) | 1.1
O=C(c1ccc(Br)o1)N1CCN(c2ccc3nnc(-c4ccccc4)n3n2)CC1 | 1.1
CN(C)C(CNS(=O)(=O)c1ccc(Cl)cc1)c1cccnc1 (configuration not stated) | 1.9
COc1ccc(C(=S)Nc2ccc(C)cc2)cc1 | i
O=C(Nc1ccc(F)cc1)NC1CCCCC1 | i
CSc1nc(C)cc(-n2ccc(=O)[nH]c2=O)n1 | i
CC(C)CNC(=O)c1coc(=O)c(Br)c1 | 1.0
CCCc1cc(=O)oc2c(C)c(OCC(=O)c3ccc(N4CCCC4)cc3)ccc12 | 0.2
Oc1ccc(-c2csc(-c3ccccc3)n2)cc1O | 13
COc1ccc(Cc2nn3c(-c4ccccc4OC)nnc3s2)cc1 | 0.5
Cc1onc(-c2ccccc2)c1C(=O)Nc1sc2c(c1C#N)CCC(C)C2 (configuration not stated) | i
COc1ccc(-c2nnn(CC#N)n2)cc1OC | 1.6
Cc1ccc(Cc2nc(-c3cccc(C)c3)no2)cc1 | i
COCCNC(=S)N/N=C(\C)c1ccc(-n2ccnc2)cc1 | 1.1

A different layout for part of the listing above.
O=C(c1ccc(Br)o1)N1CCN(c2ccc3nnc(-c4ccccc4)n3n2)CC1
  H5N1 CPE: 1.1

CN(C)C(CNS(=O)(=O)c1ccc(Cl)cc1)c1cccnc1 (configuration not stated)
  H5N1 CPE: 1.9

COc1ccc(C(=S)Nc2ccc(C)cc2)cc1
  H5N1 CPE: i

O=C(Nc1ccc(F)cc1)NC1CCCCC1
  H5N1 CPE: i

Additional structures follow.
Molecule | H5N1 CPE
CCc1cccc2c(C#N)cn(CC(=O)N3CCOCC3)c12 | 0.4
COC(=O)c1ccc(Cl)c(NC(=O)CN(c2ccc3c(c2)OCO3)S(C)(=O)=O)c1 | 0.6
COc1ccc(-c2nnc(Nc3nc4c(OC)cccc4s3)o2)cc1 | 0.2
Cc1ccc(CN2C(=O)C3CCCN3c3ccc(S(=O)(=O)N4CCOCC4)cc32)cc1 (configuration not stated) | 0.6
Cc1ccc(O)c(-c2cc(C(F)(F)F)[nH]n2)c1 | i
O=C(c1ccc(NC2=NC3CS(=O)(=O)CC3S2)cc1)N1CCN(Cc2ccccc2)CC1 (configuration not stated) | 0.2
O=C(O)c1ccc(COc2c(F)c(F)cc(F)c2F)o1 | 1.7
CS(=O)(=O)N(CC(=O)Nc1ccc2c(c1)OCO2)c1ccccc1 | i
CCCCOC(=O)C1CCCC(C(=O)OCCCC)N1 (configuration not stated) | i
CCOc1ccc(Cc2nc(C)c(CC(=O)N3CCOCC3)c(=O)[nH]2)cc1 | i
O=C(c1cccs1)N1CCc2ccccc21 | 7.1

From PubChem
